From PubChem BioAssay
TRPML1 blocker = inhibitors of human TRPML1 channel; hit rate 0.02% among 390,000; activity change, negative = inhibition, % (no concentration beside the values); TRPML1-inducible cells, Ca2+ dye fluorescence, FDSS; active compounds read low; inhibition of EC80 agonist-evoked calcium signal; Q9GZU1; in the data active means activity change below about -50%; inconclusive means about -30% to -50%; inactive means above about -30%;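 further: stimulus is agonist 54-4 at its EC80 concentration; on the % scale 0 is the no-effect control and ±100 the full control effect; compound concentration not given in the record; the text of the record puts the active cut at -80%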
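Tet-induced TRPML1-DL cells loaded with Ca8 no-wash calcium dye were read kinetically on FDSS. Compound addition was followed by EC80 agonist 54-4 (4 uM final); inhibition was read over 110 s.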
ClpP mod = qHTS Assay for Activators of ClpP. ATP-dependent Clp protease proteolytic subunit (Bacillus subtilis (strain 168)), P80244. purified B. subtilis ClpP, FRET peptide cleavage, 20 min. Potency, µM (series often up to 57.5 µM), without a hit: at the highest dose activity change, negative = active. hit rate 1.9% among 340,000. AID 651965, 2013; active = well fitted falling curve with a large enough effect; inconclusive = small, poorly fitted or top-dose-only effect; inactive = no such curve, though single readings can be large or run the other way; further: potency means the concentration at half of the fitted maximal effect; the source files actives as falling curves though it sought activators and does not explain the sign; nearly all actives have a fitted effect of over 65% in size; many hits overshoot -100%
Target sequence (P80244 whole entry, looked up): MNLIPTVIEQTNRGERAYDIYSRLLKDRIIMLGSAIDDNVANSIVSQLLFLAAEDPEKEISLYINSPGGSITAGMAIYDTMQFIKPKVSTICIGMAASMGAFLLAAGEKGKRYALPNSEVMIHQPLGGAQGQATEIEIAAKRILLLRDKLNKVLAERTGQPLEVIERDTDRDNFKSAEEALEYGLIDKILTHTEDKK
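Purified B. subtilis ClpP, 10 microg/mL final in Tris/HCl pH8 with KCl, BSA, glycerol and Tween-20, cleaved an Abz/nitrotyrosine-quenched decapeptide. Fluorescence (ex 320, em 430) was read at 0 and 20 min at room temperature. Delta was normalized to 5.8 microM ADEP and DMSO/no-enzyme controls.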
Sfp PPTase inh = blocks B. subtilis Sfp PPTase activity; Q9F4F7; Biochemical Sfp PPTase activity, qHTS; Potency, µM, for the others: max response, negative = inhibition, actives largely listed as inhibitors; hit rate 3.5% among 310,000; active means well fitted inhibition curve with a large enough effect; inconclusive means small, poorly fitted or top-dose-only effect, or another doubt; inactive means no such curve, though single readings can be large or run the other way;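 further: the enzyme is Sfp with the accession as filed and its product quenches rhodamine fluorescence; potency means the concentration at half of the fitted maximal effect; 0% = enzyme reaction without inhibitor and -100% = no enzyme wells; top concentration of the series not given in the record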
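Sfp 15 nM + cpd, 15 min RT; start w/ rhodamine-CoA 5 uM, BHQ-2-YbbR 12.5 uM (final); 50 mM Hepes pH 7.6, 10 mM MgCl2, 0.01% NP-40, 0.01% BSA; read 525/598 nm at 0 and 30 min.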
Menin MLL FP FL = displaces fluorescein MLL peptide from human menin. Fluorescence polarization, fluorescein-MLL peptide displacement from menin. FP activity change, % at 61.4 µM. 290,000 tested, under 10 active; inconclusive = falling polarisation curve, or a change in total fluorescence; inactive = total fluorescence flat and polarisation flat or rising; no compound was filed as active; the % refers to the polarisation; negative = inhibition;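 further: % of control where 0% means no effect; inhibitors lower the polarisation; unlabelled MLL peptide was the positive control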
TRPV1 potentiator = potentiators of human vanilloid receptor 1 (TRPV1) | Q8NER1 | AID 540277 | hit rate 0.02% among 320,000 | potentiation, % at 8.33 µM | TRPV1-expressing cells, Fluo-8 calcium influx, capsaicin EC20 potentiation; host cell line not named in the record; control for the full effect not named in the record; active means potentiation above 80%; inconclusive means 30% to 80%; inactive means below 30%; further: 0% is about no effect
Target sequence (Q8NER1 whole entry, looked up): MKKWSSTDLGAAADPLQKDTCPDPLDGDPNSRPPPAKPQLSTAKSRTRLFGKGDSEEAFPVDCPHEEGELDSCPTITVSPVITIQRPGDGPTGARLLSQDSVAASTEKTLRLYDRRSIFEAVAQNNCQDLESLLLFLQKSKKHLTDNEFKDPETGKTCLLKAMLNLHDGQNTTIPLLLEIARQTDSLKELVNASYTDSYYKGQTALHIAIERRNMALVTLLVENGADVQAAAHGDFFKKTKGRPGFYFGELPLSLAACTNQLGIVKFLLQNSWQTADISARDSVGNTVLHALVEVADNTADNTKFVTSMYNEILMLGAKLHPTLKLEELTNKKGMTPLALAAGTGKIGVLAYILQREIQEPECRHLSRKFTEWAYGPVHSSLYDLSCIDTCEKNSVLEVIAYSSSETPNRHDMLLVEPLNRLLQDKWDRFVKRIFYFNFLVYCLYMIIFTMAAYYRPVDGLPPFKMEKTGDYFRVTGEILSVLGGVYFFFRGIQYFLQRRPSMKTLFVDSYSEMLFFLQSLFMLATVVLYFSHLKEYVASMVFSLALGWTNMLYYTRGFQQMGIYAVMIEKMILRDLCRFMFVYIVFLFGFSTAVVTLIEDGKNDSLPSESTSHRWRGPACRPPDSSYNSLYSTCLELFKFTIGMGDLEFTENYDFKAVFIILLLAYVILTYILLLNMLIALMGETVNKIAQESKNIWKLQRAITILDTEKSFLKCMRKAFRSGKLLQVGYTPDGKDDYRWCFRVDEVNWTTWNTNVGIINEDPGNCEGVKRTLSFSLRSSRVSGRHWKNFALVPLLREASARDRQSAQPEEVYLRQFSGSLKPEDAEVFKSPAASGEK
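Fluo-8 calcium influx in TRPV1-expressing cells, kinetic read (ex 480/em 520 nm). Compound added and read 3 min for agonist activity, followed by capsaicin at EC20 final and 2 min further read for enhancement.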
TRPML1 agonist = activates the human TRPML1 channel | hit rate 0.12% among 410,000 | Q9GZU1 | AID 624414 | activation, % (no concentration beside the values) | TRPML1-expressing cells, Ca2+ dye fluorescence, FDSS; host cell line not named in the record; reference of the full effect not given here; in the data active = activation above about 50%; inconclusive = about 30% to 50%; inactive = below about 30%; further: 0% is about no effect; the text of the record puts the active cut at 80%
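Agonist activity was taken from a 110 s kinetic Ca2+ dye read on the FDSS after pinning compounds onto TRPML1-DL cells. The cells were seeded at 1,500/well with Tet inducer, incubated about 16 h, then dye-loaded at room temperature.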
PINK1 expr mod = changes PINK1 expression. PINK1 immunofluorescence, high-content cytometry, 24 h. Potency, µM (doses to about 76.6 µM), without a hit: at the top dose activation (PINK1 increase), actives largely listed as activators. AID 624263. hit rate 0.2% among 410,000; active = well fitted activation curve with a large enough effect; inconclusive = small, poorly fitted or top-dose-only effect; inactive = flat fitted curve, though single readings scatter; cell line not stated here;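 further: potency means the concentration at half of the fitted maximal effect; % of control where 0% means no effect; nearly all actives have a fitted effect of over 65% in size; a mitochondrial uncoupler was the plate control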
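Fluorescence from anti-PINK1 antibody, together with nuclear and cell stains, was scanned on a laser-scanning cytometer. Before staining, stable-line cells were incubated 24 hours with compounds at 5 concentrations; primary antibody 12 h at 10 degrees C.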
Numbers without * were called inactive; ? = inconclusive; / = no result given; [ ] = another dose, or the depositor's remark. Hits appear at their usual frequency; any-hit rate near 4.4%.

Structure | TRPML1 blocker | ClpP mod | Sfp PPTase inh | Menin MLL FP FL | TRPV1 potentiator | TRPML1 agonist | PINK1 expr mod
CC(C)C(NC(=O)CN1C(=O)c2ccccc2C1=O)c1ccccc1 (stereo not given) | -27 | 0.5% | 7% | 5.9 | 16 | 0.8 | -0.6%
CC(C)(C)c1cc(-c2n[nH]c(=S)n2-c2ccc(Cl)cc2)n[nH]1 | -11 | -1.3% | ? | 0.9 | -2 | 0.1 | -0.4%
CC(OC(=O)CCc1nc2ccccc2[nH]c1=O)c1ccccc1 (stereo not given) | -24 | / | -3% | -0.6 | -11 | 1.5 | -0.9%
CCC(C(=O)Nc1ccccc1)c1ccccc1 (stereo not given) | 44 | 0.4% | 9% | 7.1 | 14 | 4.5 | 2.9%
CC1(C)C(=O)OC(c2ccccc2)C(C)(C)C1=O (stereo not given) | 1 | -2.7% | 13% | 8.1 | -2 | -0.4 | 0.4%
Cc1ccc2oc(Nc3nc(C)cc(C)n3)nc2c1 | -1 | 0.1% | 13% | 3.8 | 6 | 0.2 | 0.4%
Cn1cc(Cl)nc1C(O)c1ccccc1 (stereo not given) | 0 | 1.5% | 12% | 4.3 | -7 | 0.4 | 2.9%
CC1CCCCCCC1OC(=O)c1ccccc1C(=O)O (stereo not given) | 12 | 2.1% | / | / | / | -0.2 | 0.1%
CS(=O)(=O)c1ccc(Cl)c(NC(=O)COC(=O)CCc2c[nH]c3ccccc23)c1 | 4 | 1.5% | / | / | 22 | -0.1 | 0.8%
Cc1cc2ccccn2c1C(=O)c1cc([N+](=O)[O-])cc([N+](=O)[O-])c1 | 11 | / | 4% | -0.9 | -39 | 0.6 | 5.3%
COc1cc(C(C)=O)ccc1OCC(=O)Nc1ccc(S(=O)(=O)N2CCCCC2)cc1 | -5 | -5.3% | / | / | / | -0.8 | 0.2%
O=C(Cc1ccccc1)Nc1cccc(N2CCCC2)c1 | -24 | ? | -56% | ? | -1 | -0.2 | 1.1%
CC(=O)c1c(C)[nH]c(C(=O)OCC(=O)Nc2ccccc2Cl)c1C | 35 | -1.9% | 19% | 0.0 | -10 | -0.7 | -1.9%
CN(C)c1ccc(N=Cc2ccco2)cc1 | -9 | -2.6% | 45µM* | 8.6 | 8 | -0.2 | 4.1%[38.3 µM]
CC(=O)c1cc(-c2ccc(F)cc2)n(CCC(=O)NC(C)(C)C)c1C | -7 | -3.3% | 17% | -3.7 | -5 | 1.0 | 0.3%
O=c1[nH]c(C2CCCCC2)nc2ccccc12 | 28 | 1.7% | -1% | 4.0 | 8 | -0.1 | 1.3%
Cc1c(C(=O)NCc2ccccc2Cl)sc2nc(-c3ccc(F)cc3)cn12 | 58 | -5.8% | / | / | / | 4.1 | 7.8%
COc1ccc(OC)c(C2C(C#N)=C(N)N(N(C)C)C3=C2C(=O)CC(C)(C)C3)c1 (stereo not given) | 0 | / | 13% | -2.9 | ? | 1.2 | 4.4%
CSc1nnc2[nH]c(=O)cc(C)n12 | -11 | -3.4% | / | / | / | 0.4 | 19%
CCC1CCCCN1CCCn1c(=S)[nH]c2ccccc2c1=O (stereo not given) | 74 | 20µM* | 14% | -2.2 | 3 | -0.9 | 0.0%
COc1ccc(Cl)cc1C(=O)OCC(=O)NC1CCCC(C)C1C (stereo not given) | 44 | -20% | / | / | ? | 3.5 | 0.8%
Cc1ccc(N2C(=O)CC(Sc3nc4ccccc4o3)C2=O)cc1Cl (stereo not given) | 14 | -0.6% | 50µM* | 2.3 | -8 | -0.3 | 0.5%
COc1cc(NC(=O)C2CCN(S(=O)(=O)c3cccs3)CC2)cc(OC)c1 | 26 | -2.6% | / | / | 11 | 1.6 | 2.4%
CN(C)Cc1c(O)ccc2[nH]cnc12 | 1 | -2.4% | -1% | 1.4 | -9 | -0.4 | -3.3%
COC(=O)c1ccccc1NC(=O)CSc1nc(-c2ccccc2)cc(C(F)(F)F)n1 | 23 | -18% | / | / | / | 1.1 | 0.6%
CCN(CC)S(=O)(=O)c1ccc2c(c1)nc(CCC(=O)OCc1c(C)noc1C)n2C | -4 | -4.4% | -2% | 2.5 | ? | 2.4 | -1.3%
O=C(NCc1ccncc1)C(=O)NCC1OCCN1S(=O)(=O)c1cc(F)ccc1F (stereo not given) | 2 | 2.0% | / | / | / | -0.7 | 1.0%
OC[C@@H]1CN(CCN2CCOCC2)C[C@H](n2cnc3c(NCc4ccc(F)cc4)ncnc32)O1 | 13 | 0.8% | / | / | / | -0.1 | 0.2%
O=C(N/N=C1\CC2CC=CC12)c1ccc(Br)cc1 (stereo not given) | -1 | -1.4% | -8% | -4.0 | 6 | -1.1 | 0.0%
CCOc1ccc(OCC)c(NC(=O)c2csc3c2CCCC3)c1 | 14 | ? | / | / | / | 1.3 | -0.3%
Cc1c(Cl)cccc1NC(=O)c1ncoc1-c1ccco1 | 2 | 3.9% | / | / | / | -0.7 | 2.8%
CC(C)(C)NC(=O)C(c1ccccc1)N(C(=O)c1csnn1)C1CC1 (stereo not given) | 27 | 5.0% | 17% | 5.7 | 3 | 0.4 | -1.2%
CCOC(=O)N/N=C/c1c[nH]c2ccccc12 | 15 | -1.3% | 12% | 0.9 | 9 | 2.3 | -0.1%
CC(C)(C)C(=O)Cn1c(=O)n(CC2CCCO2)c(=O)c2ccccc21 (stereo not given) | -8 | -25% | 0% | 3.8 | 11 | -0.3 | -2.9%
CCc1nc(NC(C)(C)C)c2cnn(-c3ccccc3)c2n1 | 1 | / | 21% | -9.2 | 9 | 2.0 | 13%
O=C(O)c1ccc(N=c2oc3cc(O)ccc3cc2C(=O)NCc2ccccc2)cc1 | 13 | 3.7% | -2% | ? | 11 | 2.5 | -0.6%
Cc1ccc(NC(=O)Nc2ccc(S(N)(=O)=O)cc2)cc1 | 3 | / | 10% | -0.9 | 5 | -0.3 | 0.5%
COc1ccc(S(=O)(=O)N2CCC(Oc3ccc(-n4cnnn4)cc3)CC2)cc1OC | -14 | -0.6% | / | / | / | 2.2 | -0.9%
COc1ccc(Br)cc1CNC(=O)Nc1cccs1 | 12 | 1.0% | 50µM* | 8.4 | -19 | 0.3 | 11%[38.3 µM]
COC(=O)[C@H](CCSC)NC(=O)Cn1cnc2c(NCc3ccccc3)ncnc21 | 15 | -1.8% | / | / | / | -0.5 | -1.1%
Cc1c(C)c2ccc(OCC(=O)NCCN3CCOCC3)c(C)c2oc1=O | 5 | 3.8% | 1% | -13 | 10 | 0.0 | -1.2%
O=C(N/N=C/c1ccc(Br)o1)c1cncc(Br)c1 | -14 | -1.6% | 3% | -3.7 | 12 | 1.1 | 1.1%
O=C(COc1ccc2ccc(=O)oc2c1)c1ccccc1 | -4 | -1.0% | 11% | -1.0 | -4 | -0.6 | -1.3%
O=c1c(-c2ccc(Oc3ccccc3)cc2)[n+]([O-])c2ccccc2n1OCc1ccccn1 | -12 | 0.4% | -1% | -0.6 | 8 | -0.2 | 3.8%
CN(CC(=O)NC1CCCCCC1)S(=O)(=O)c1ccc(F)cc1 | 3 | 0.2% | 7% | / | 16 | -0.3 | 1.7%
O=C(O/N=C/c1ccc2c(c1)OCO2)c1ccc([N+](=O)[O-])cc1 | 32 | / | 17% | -1.2 | -8 | 0.8 | 0.1%
Cc1cc2nc(NC(=O)C3(C)CCN(C)C3)[nH]c2cc1C (stereo not given) | / | -5.1% | / | / | / | -0.4 | 0.5%
COCc1[nH][nH]c(=O)c1C=Nc1ccc(Cl)cc1 | 2 | -1.0% | -8% | 2.1 | 2 | -0.3 | 0.1%
N#CC1(c2c(O)nc3n(c2=O)CCCS3)CCCCC1 | -20 | -4.9% | 13% | 1.7 | 3 | 2.4 | 4.7%[38.3 µM]
COc1ccc(NS(=O)(=O)NC(=O)c2c(C)n(C)c3ccccc23)cc1 | -8 | -1.5% | -2% | -1.3 | 14 | -0.2 | -1.1%
Cc1ccc(N(C)C(=O)C2CCN(S(=O)(=O)c3ccc4c(c3)oc(=O)n4C)CC2)cc1 | 15 | -0.5% | -9% | -1.7 | ? | -0.8 | 0.5%
CCc1[nH]nc2c1C1(CCN(C(=O)OCc3ccccc3)CC1)C(C#N)=C(N)O2 | -5 | 0.1% | -28% | 4.7 | 2 | -0.4 | 0.2%
CCS(=O)(=O)N1CCC(n2c(C(F)(F)F)nc3cccnc32)CC1 | -23 | -2.5% | / | / | / | -1.1 | 0.3%
COc1ccc(CN2CCSCC2)cc1O | -2 | 1.6% | 8% | 2.5 | -1 | -0.4 | 1.7%
CCOC(=O)c1c(C)[nH]c(C)c1C(=O)COC(=O)[C@@H](NC(=O)c1ccccc1OCC)C(C)C | 3 | 0.8% | 19% | -1.2 | 29 | -0.2 | -0.3%[38.3 µM]
CCOc1ncccc1C(=O)OCC(=O)NC(=O)c1ccccc1 | 5 | 1.6% | / | / | -19 | -0.3 | 2.5%
Cc1ccc(C)c(NC(=O)c2ncn[nH]2)c1 | 53 | -1.4% | -12% | 2.2 | -10 | 0.3 | 0.9%[38.3 µM]
O=C(NC(Cc1ccccc1)C(=O)O)C1CCN(S(=O)(=O)c2cccc(C(F)(F)F)c2)CC1 (stereo not given) | -12 | 0.4% | 13% | -7.3 | 7 | -0.9 | 3.2%
NC(=O)CC(NC(=O)Cc1ccc(Cl)cc1)c1ccc(N2CCC(Cc3ccccc3)CC2)c([N+](=O)[O-])c1 (stereo not given) | -12 | -1.1% | 8% | -3.4 | -4 | -0.1 | 11%
Cc1ccc(C)c(NC(=O)CSc2nc(=O)n(Cc3ccccn3)c3c2CCC3)c1 | 32 | -3.7% | / | / | / | 1.4 | -0.3%
Cc1ccc2c(c1)-c1nc(-c3ccc4c(c3)NC(=O)CO4)cc(-c3ccccc3)c1CO2 | 5 | ? | / | / | / | 0.0 | -0.8%
